Screening results as filed in PubChem BioAssay.
rRNA inh HTS – inhibitors of bacterial rRNA selective over humanized ribosomes | E. coli WT GFP vs humanized-ribosome RFP mutants, fluorescence, 24 h; hits give low values; DMSO median 0, no signal -100 | GFP signal change (wild-type ribosome), % (test concentration not listed) | hit rate 1.6% among 350,000 | AID 720706;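 active = significant combined selectivity score with lowered wild-type GFP, culture density cut under 30%, mutant RFP and density less affected; inactive = any of these conditions unmet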; also: one replicate is shown; some compounds called inactive have numbers as strong as hits
FGF22 binding – shifts melting point of recombinant human FGF22 | Q9HCT0 | recombinant FGF22 thermal shift, SYPRO orange fluorescence; percent of sucrose octasulfate shift, DMSO zero | calls only at 9.99 µM | hit rate 1.5% among 340,000 | AID 651658;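 active = melting point raised past a set limit in the mean and every replicate; three in four hits are not shown here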
Target sequence (Q9HCT0 whole entry, looked up): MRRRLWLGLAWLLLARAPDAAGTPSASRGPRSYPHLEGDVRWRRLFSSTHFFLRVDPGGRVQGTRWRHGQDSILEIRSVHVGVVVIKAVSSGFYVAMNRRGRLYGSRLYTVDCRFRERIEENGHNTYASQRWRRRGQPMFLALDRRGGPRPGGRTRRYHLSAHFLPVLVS
rRNA inh HTS OD600 – further read-out of rRNA inh HTS, marked with its call; OD600 change, %; measured here: OD600 growth;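 optical density of the mix in the first replicate; 0 = DMSO median and -100 = no signal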
rRNA inh HTS RFP – second read-out of rRNA inh HTS, no call of its own (marks repeat the call); RFP signal change, %; measured here: RFP humanized mutant strains;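 first replicate; 0 = DMSO median and -100 = no signal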
* marks the source's active call; other numbers are inactive results; i = inactive; & = joins results of further samples. These rows are one share of the data (hit frequency here may not be typical).

SMILES	rRNA inh HTS	rRNA inh HTS OD600	rRNA inh HTS RFP	FGF22 binding
COc1ccc2c3c([nH]c2c1)[C@@H](CO)N(C(=O)c1cccnc1)CC31CCN(C(=O)NC(C)C)CC1	3	11	-1.8	i
C[C@@H]1CN([C@@H](C)CO)C(=O)c2cc(NC(=O)Nc3ccc(F)cc3)ccc2O[C@@H]1CN(C)CC1CCCCC1	2	-9	2.0	i
C[C@H](CO)N1C[C@H](C)[C@H](CN(C)S(=O)(=O)c2ccc(Cl)cc2)OCCCC[C@H](C)Oc2ccc(NC(=O)c3ccncc3)cc2C1=O	-3	1	14	i
Cc1noc(C)c1NC(=O)Nc1ccc2c(c1)C(=O)N(C)[C@@H]1CC[C@H](CC(=O)NCc3ccc(Cl)cc3)O[C@@H]1CO2	1	0	-0.3	i
C[C@@H]1CN([C@@H](C)CO)C(=O)c2cc(NS(=O)(=O)c3ccc(F)cc3)ccc2O[C@H]1CN(C)Cc1ccccc1	1	5	-0.2	i
C[C@H]1CN([C@@H](C)CO)C(=O)Cc2cc(NC(=O)NC3CCCCC3)ccc2O[C@@H]1CN(C)Cc1ccc(Cl)c(Cl)c1	0	-1	-1.1	i
C[C@H]1CN([C@@H](C)CO)C(=O)c2cc(NC(=O)C3CCCCC3)ccc2O[C@H]1CN(C)S(=O)(=O)c1ccc(F)cc1	0	9	-0.1	i
C[C@H]1CN([C@@H](C)CO)C(=O)c2cc(NC(=O)c3ccncc3)ccc2O[C@H]1CN(C)C(=O)Nc1cccc2ccccc12	-1	-7	1.8	i
COc1ccc(-c2ccc([C@H]3[C@@H](CO)N4CCCCN(S(=O)(=O)c5cccs5)C[C@H]34)cc2)cc1	-45	-48	-0.7	i
Cc1noc(C)c1NC(=O)N(C)C[C@@H]1Oc2ccc(NS(=O)(=O)c3ccc(F)cc3)cc2C(=O)N([C@H](C)CO)C[C@@H]1C	0	-3	-2.2	i
CCC(=O)N1CC2(C1)[C@H](c1ccc(-c3ccccc3)cc1)[C@@H](CO)N2S(C)(=O)=O	-3	-5	0.9	i
CCC(=O)N1CCC2(CC1)CN(Cc1nccs1)[C@H](CO)c1c2c2ccc(OC)cc2n1C	-1	-3	-1.2	i
C[C@@H]1CN([C@@H](C)CO)S(=O)(=O)c2ccc(-c3cccc(C#N)c3)cc2O[C@H]1CN(C)C(=O)Nc1cc(F)ccc1F	-5	-11	2.4	i
COc1ccc(-c2cnc3c(c2)C(=O)N([C@@H](C)CO)C[C@@H](C)[C@H](CN(C)C(=O)CN(C)C)O3)cc1	7	18	-2.5	i
C/C=C/c1cnc2c(c1)C(=O)N([C@H](C)CO)C[C@@H](C)[C@@H](CN(C)S(=O)(=O)c1ccc(F)cc1)O2	2	8	-1.7	i

Shown with values under each structure: 2 of the compounds above.
The line under a structure holds: rRNA inh HTS | rRNA inh HTS OD600 | rRNA inh HTS RFP | FGF22 binding
C[C@H](CO)N1C[C@H](C)[C@H](CN(C)S(=O)(=O)c2ccc(Cl)cc2)OCCCC[C@H](C)Oc2ccc(NC(=O)c3ccncc3)cc2C1=O
 : -3 | 1 | 14 | i
Cc1noc(C)c1NC(=O)N(C)C[C@@H]1Oc2ccc(NS(=O)(=O)c3ccc(F)cc3)cc2C(=O)N([C@H](C)CO)C[C@@H]1C
 : 0 | -3 | -2.2 | i

A stretch from further up:
SMILES	rRNA inh HTS	rRNA inh HTS OD600	rRNA inh HTS RFP	FGF22 binding
C[C@@H]1CN([C@@H](C)CO)C(=O)c2cc(NC(=O)Nc3ccc(F)cc3)ccc2O[C@@H]1CN(C)CC1CCCCC1	2	-9	2.0	i
C[C@H](CO)N1C[C@H](C)[C@H](CN(C)S(=O)(=O)c2ccc(Cl)cc2)OCCCC[C@H](C)Oc2ccc(NC(=O)c3ccncc3)cc2C1=O	-3	1	14	i
Cc1noc(C)c1NC(=O)Nc1ccc2c(c1)C(=O)N(C)[C@@H]1CC[C@H](CC(=O)NCc3ccc(Cl)cc3)O[C@@H]1CO2	1	0	-0.3	i

The listing picks up, starting 5 compounds before the break.
SMILES	rRNA inh HTS	rRNA inh HTS OD600	rRNA inh HTS RFP	FGF22 binding
CCC(=O)N1CC2(C1)[C@H](c1ccc(-c3ccccc3)cc1)[C@@H](CO)N2S(C)(=O)=O	-3	-5	0.9	i
CCC(=O)N1CCC2(CC1)CN(Cc1nccs1)[C@H](CO)c1c2c2ccc(OC)cc2n1C	-1	-3	-1.2	i
C[C@@H]1CN([C@@H](C)CO)S(=O)(=O)c2ccc(-c3cccc(C#N)c3)cc2O[C@H]1CN(C)C(=O)Nc1cc(F)ccc1F	-5	-11	2.4	i
COc1ccc(-c2cnc3c(c2)C(=O)N([C@@H](C)CO)C[C@@H](C)[C@H](CN(C)C(=O)CN(C)C)O3)cc1	7	18	-2.5	i
C/C=C/c1cnc2c(c1)C(=O)N([C@H](C)CO)C[C@@H](C)[C@@H](CN(C)S(=O)(=O)c1ccc(F)cc1)O2	2	8	-1.7	i
Cc1noc(C)c1S(=O)(=O)N(C)C[C@H]1Oc2ccc(NS(=O)(=O)c3cccs3)cc2C(=O)N([C@H](C)CO)C[C@H]1C	4	3	-0.8	i
C[C@H](CO)N1C[C@H](C)[C@@H](CN(C)Cc2ccc(C(F)(F)F)cc2)Oc2c(NC(=O)C3CC3)cccc2C1=O	-5	0	1.3	i
Cc1noc(C)c1S(=O)(=O)Nc1ccc2c(c1)C(=O)N([C@@H](C)CO)C[C@@H](C)[C@H](CN(C)C(=O)NC1CCCCC1)O2	1	5	-0.4	i
C[C@H]1CCCCO[C@H](CN(C)C(=O)NC2CCCCC2)[C@@H](C)CN([C@@H](C)CO)C(=O)c2cc(NC(=O)CCCN(C)C)ccc2O1	0	-8	-0.7	i
CC(C)NC(=O)N[C@@H]1C=C[C@H](CC(=O)O)O[C@H]1CO	2	5	-1.0	i
COc1ccc2c3c(n(C)c2c1)[C@H](CO)N(C(=O)C1CCC1)CC31CCN(C(=O)CN(C)C)CC1	0	12	0.0	i
C[C@H]1CN([C@@H](C)CO)S(=O)(=O)c2ccc(C3=CCCC3)cc2O[C@@H]1CN(C)C(=O)C1CCOCC1	0	-10	-0.8	i
C[C@H](CO)N1C[C@H](C)[C@H](CN(C)C(=O)C2CCOCC2)Oc2ncc(-c3ccncc3)cc2C1=O	3	12	-2.8	i
O=C(C[C@@H]1C[C@@H]2c3cc(NC(=O)Nc4ccccc4F)ccc3O[C@@H]2[C@H](CO)O1)NCc1ccccn1	2	-9	-0.5	i
C[C@@H]1CN([C@H](C)CO)S(=O)(=O)c2ccc(C3=CCCC3)cc2O[C@@H]1CN(C)C(=O)C1CCC1	-4	-5	5.3	i
O=C(CC1CC1)N1[C@H](CO)[C@@H](c2ccccc2)C12CN(Cc1cc(F)ccc1F)C2	-5	-13	2.1	i
C[C@@H]1CN([C@@H](C)CO)C(=O)c2cc(NC(=O)Nc3cccc4ccccc34)ccc2O[C@@H]1CN(C)S(C)(=O)=O	1	-1	-0.3	i
CN(C)CC(=O)N[C@H]1CC[C@@H](CCNC(=O)C2CCC2)O[C@H]1CO	4	6	-2.7	i
CCC(=O)Nc1ccc2c(c1)C(=O)N(C)C[C@@H](OC)[C@H](C)CN(C(=O)NC(C)C)[C@@H](C)CO2	-2	-1	-0.8	i
COc1ccc(NC(=O)N(C)C[C@@H]2Oc3ccc(NS(=O)(=O)c4cn(C)cn4)cc3CC(=O)N([C@H](C)CO)C[C@H]2C)cc1	-5	2	-2.7	i

Reformatted with two lines to a compound: part of the list above
Value order – rRNA inh HTS, rRNA inh HTS OD600, rRNA inh HTS RFP, FGF22 binding
CC(C)NC(=O)N[C@@H]1C=C[C@H](CC(=O)O)O[C@H]1CO
 : 2, 5, -1.0, i
COc1ccc2c3c(n(C)c2c1)[C@H](CO)N(C(=O)C1CCC1)CC31CCN(C(=O)CN(C)C)CC1
 : 0, 12, 0.0, i

Next section
SMILES	rRNA inh HTS	rRNA inh HTS OD600	rRNA inh HTS RFP	FGF22 binding
CCCNC(=O)C[C@@H]1C[C@H]2c3cc(NC(=O)Nc4ccccc4F)ccc3O[C@H]2[C@@H](CO)O1	1	-5	-0.3	i
Cc1ccc(S(=O)(=O)N(C)C[C@H]2Oc3c(NC(=O)C4CCCCC4)cccc3C(=O)N([C@H](C)CO)C[C@H]2C)cc1	-6	-1	-1.4	i
Cc1ccc(S(=O)(=O)Nc2ccc3c(c2)C(=O)N([C@@H](C)CO)C[C@H](C)[C@@H](CN(C)Cc2ccncc2)O3)cc1	1	11	-0.9	i
C[C@H]1CN([C@@H](C)CO)C(=O)c2cc(-c3cccnc3)cnc2O[C@@H]1CN(C)C(=O)NC1CCCC1	5	3	1.3	i
COc1ccc2c3c([nH]c2c1)[C@@H](CO)N(Cc1nccs1)CC31CCN(Cc2cccnc2)CC1	-3	-3	-1.3	i
CO[C@@H]1CN(C)C(=O)c2ccc(NS(=O)(=O)c3cccc(Cl)c3)cc2OC[C@H](C)NC[C@@H]1C	1	8	0.1	i
CCC(=O)N1[C@@H]2CN(S(=O)(=O)c3ccccc3F)c3ccccc3[C@@H]2[C@@H]1CO	1	0	-2.9	i
CO[C@@H]1CN(C)C(=O)c2ccc(NC(=O)C3CCCCC3)cc2OC[C@@H](C)N(Cc2nccs2)C[C@@H]1C	-5	-7	4.0	i
C[C@@H]1CN([C@H](C)CO)C(=O)Cc2cc(NC(=O)Nc3ccc4c(c3)OCO4)ccc2O[C@H]1CN(C)C	-1	12	-2.5	i
O=C(Nc1ccc(Cl)cc1)N[C@@H]1CC[C@H](CCNS(=O)(=O)c2ccccc2F)O[C@H]1CO	-5	-3	4.4	i
COCC(=O)N(C)C[C@H]1Oc2cc(-c3ccccc3F)ccc2S(=O)(=O)N([C@H](C)CO)C[C@H]1C	4	4	-2.3	i
CNC[C@@H]1Oc2cc(-c3ccccc3OC)ccc2S(=O)(=O)N([C@H](C)CO)C[C@H]1C	6	7	0.8	i
CN(C)CC(=O)Nc1ccc2c(c1)[C@@H]1C[C@H](CC(=O)N3CCc4ccccc4C3)O[C@H](CO)[C@@H]1O2	0	1	0.4	i
C[C@@H]1CCCCO[C@@H](CN(C)S(=O)(=O)c2cccs2)[C@H](C)CN([C@@H](C)CO)C(=O)c2cc(NC(=O)Nc3ccc(F)cc3)ccc2O1	-2	8	1.9	i
C[C@H]1CN([C@@H](C)CO)C(=O)c2cc(NS(C)(=O)=O)ccc2O[C@H]1CN(C)Cc1ccc(C(F)(F)F)cc1	-3	-3	-2.4	i
CN1CCN(C(=O)C[C@H]2C[C@@H]3c4cc(NC(=O)C5CCC5)ccc4O[C@@H]3[C@H](CO)O2)CC1	6	-2	2.9	i
CC(C)NC(=O)Nc1ccc2c(c1)C(=O)N([C@H](C)CO)C[C@H](C)[C@H](CN(C)Cc1ccccc1)O2	3	4	-2.6	i
O=C(Nc1ccc(F)cc1)N[C@H]1CC[C@@H](CCNC(=O)c2cc(Cl)cc(Cl)c2)O[C@@H]1CO	-8	-41	28	i
O=C(N[C@H]1CC[C@@H](CCNC(=O)c2ccccc2F)O[C@H]1CO)c1ccc2c(c1)OCO2	-1	-3	-2.5	i
Cc1ccc(S(=O)(=O)Nc2ccc3c(c2)C(=O)N([C@H](C)CO)C[C@H](C)[C@@H](CN(C)Cc2ccc4c(c2)OCO4)O3)cc1	2	5	-0.6	i
CCCNC(=O)N1C[C@@H]2N[C@H](C1)C2c1ccc(-c2ccccc2C)cc1 (stereo partly drawn)	6&-6	3&-13	0.7&2.4	i
CO[C@H]1CN(C)C(=O)c2cc(NC(=O)Nc3ccccc3F)ccc2OC[C@H](C)NC[C@H]1C	0	-5	-0.6	i
CCC(=O)Nc1ccc2c(c1)OC[C@H](C)N(Cc1ccccc1F)C[C@@H](C)[C@H](OC)CN(C)C2=O	-4	-6	3.2	i
COc1ccc(C#Cc2ccc([C@@H]3[C@@H](CO)N4CCCCN(Cc5ccccc5F)C[C@@H]34)cc2)cc1	-35	-42	-2.2	i
OC[C@@H]1Nc2ccc(-c3cccc(F)c3)cc2[C@H]2[C@@H]1CCN2Cc1ccc(F)cc1	-56	-78	-18	i
O=C(C[C@@H]1CC[C@H](NC(=O)C2CC2)[C@H](CO)O1)NCc1ccncc1	0	3	-1.8	i
